FGF22 binding: binders of human FGF22 protein, primary screen, FGF22 synaptogenesis inhibitor project, biophysical, thermal shift, single point; 1.5% of 340,000 active; calls only at 9.99 µM; recombinant FGF22 thermal shift, SYPRO orange fluorescence; percent of sucrose octasulfate shift, DMSO zero; Fibroblast growth factor 22 (Homo sapiens), Q9HCT0;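 active = melting point raised past a set limit in the mean and every replicate; three in four hits are not shown here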
Target sequence (Q9HCT0 whole entry, looked up): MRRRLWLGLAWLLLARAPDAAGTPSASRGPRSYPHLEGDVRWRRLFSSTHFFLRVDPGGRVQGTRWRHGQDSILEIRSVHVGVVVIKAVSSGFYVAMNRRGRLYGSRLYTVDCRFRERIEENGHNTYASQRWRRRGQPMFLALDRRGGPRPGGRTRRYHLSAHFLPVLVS
Calls only; i = inactive.

COc1ccc2c3c(n(C)c2c1)[C@@H](CO)N(C(=O)c1ccccn1)CC31CCN(C(=O)c2ccccn2)CC1
  FGF22 binding = i
C[C@@H]1CN([C@@H](C)CO)C(=O)Cc2cc(NS(C)(=O)=O)ccc2O[C@@H]1CN(C)Cc1ccc(Oc2ccccc2)cc1
  FGF22 binding = i
C[C@H](CO)N1C[C@H](C)[C@@H](CN(C)C(=O)C2CCCCC2)Oc2cc(-c3ccc(F)cc3)ccc2S1(=O)=O
  FGF22 binding = i
CC(C)(C)[S@](=O)N1Cc2cc(C(=O)NCc3ccncc3)nc(-c3cccc(-c4ccc(C#N)cc4)c3)c2[C@@H]1CCO
  FGF22 binding = i
C[C@@H]1CCCCO[C@@H](CN(C)C(=O)Nc2ccccc2)[C@@H](C)CN([C@@H](C)CO)C(=O)c2cc(NC(=O)c3ccccc3)ccc2O1
  FGF22 binding = i
C[C@@H]1CCCCO[C@H](CN(C)C)[C@H](C)CN([C@@H](C)CO)C(=O)c2cc(NC(=O)Nc3ccccc3)ccc2O1
  FGF22 binding = i
C/C=C/c1ccc2c(c1)O[C@@H](CN(C)Cc1ccc(F)cc1)[C@@H](C)CN([C@@H](C)CO)S2(=O)=O
  FGF22 binding = i
C[C@H](CO)N1C[C@H](C)[C@@H](CN(C)C(=O)c2cccnc2)Oc2cc(C#CC3CC3)ccc2S1(=O)=O
  FGF22 binding = i
COc1ccccc1C(=O)N1C[C@H]2[C@@H](c3ccccc31)[C@@H](CO)N2C(=O)C1CCCCC1
  FGF22 binding = i
Cc1noc(C)c1NC(=O)N(C)C[C@@H]1Oc2c(NC(=O)Nc3ccc(F)cc3)cccc2C(=O)N([C@H](C)CO)C[C@H]1C
  FGF22 binding = i
COc1ccc(S(=O)(=O)N2CC[C@@H]3[C@@H](CO)Nc4ccc(-c5ccccc5F)cc4[C@@H]32)cc1
  FGF22 binding = i
CO[C@H]1CN(C)C(=O)c2ccc(NC(=O)NC(C)C)cc2OC[C@H](C)N(C(=O)CN(C)C)C[C@H]1C
  FGF22 binding = i
COC(=O)[C@@H]1[C@@H](CO)[C@@H]2Cn3c(ccc(C4=CCCC4)c3=O)[C@@H]2N1C(=O)C1CC1
  FGF22 binding = i
C[C@H](CO)N1C[C@H](C)[C@H](CN(C)S(=O)(=O)c2ccc(F)cc2)Oc2ccc(NC(=O)Cn3cnnn3)cc2C1=O
  FGF22 binding = i
CCCNC(=O)[C@@H]1[C@@H](CO)[C@@H]2Cn3c(ccc(C4=CCCC4)c3=O)[C@@H]2N1Cc1ccccc1
  FGF22 binding = i
CO[C@H]1CN(C)C(=O)c2ccc(NC(=O)Nc3c(C)noc3C)cc2OC[C@@H](C)NC[C@@H]1C
  FGF22 binding = i
C/C=C/c1ccc([C@@H]2[C@@H](CO)N3CCCCN(S(=O)(=O)c4cccc(C)c4)C[C@H]23)cc1
  FGF22 binding = i
CC(C)C#Cc1ccc2c(c1)O[C@H](CN(C)C(=O)c1ccncc1)[C@@H](C)CN([C@H](C)CO)S2(=O)=O
  FGF22 binding = i
CN1CCN(C(=O)C[C@H]2C[C@@H]3c4cc(NC(=O)CC5CC5)ccc4O[C@@H]3[C@@H](CO)O2)CC1
  FGF22 binding = i
O=C([C@@H]1[C@@H](CO)[C@@H]2Cn3c(ccc(/C=C/c4ccccc4)c3=O)[C@@H]2N1CC1CC1)N1CCOCC1
  FGF22 binding = i
C[C@H](O)C#Cc1cnc2c(c1)C(=O)N([C@H](C)CO)C[C@@H](C)[C@H](CN(C)C(=O)Cc1ccncc1)O2
  FGF22 binding = i
C[C@@H]1CN([C@@H](C)CO)C(=O)c2cccc(NS(=O)(=O)c3ccccc3)c2O[C@@H]1CN(C)S(=O)(=O)c1cn(C)cn1
  FGF22 binding = i
CC(C)CC#Cc1cnc2c(c1)C(=O)N([C@@H](C)CO)C[C@@H](C)[C@@H](CN(C)C(=O)c1ccccc1)O2
  FGF22 binding = i
Cc1ccc(S(=O)(=O)N(C)C[C@H]2OCCCC[C@@H](C)Oc3ccc(NC(=O)C4CCCCC4)cc3C(=O)N([C@H](C)CO)C[C@H]2C)cc1
  FGF22 binding = i
COC(=O)C[C@@H]1CC[C@H](NC(=O)Nc2ccc(C(F)(F)F)cc2)[C@H](CO)O1
  FGF22 binding = i

C[C@@H]1CN([C@H](C)CO)C(=O)c2cccc(NC(=O)c3ccncc3)c2O[C@@H]1CN(C)C(=O)Nc1cccc2ccccc12
  FGF22 binding = i
COCCNC(=O)C[C@H]1C[C@@H]2c3cc(NC(=O)Nc4ccccc4F)ccc3O[C@@H]2[C@H](CO)O1
  FGF22 binding = i
CC=Cc1ccc2n(c1=O)C[C@@H]1[C@@H](CO)[C@H](C(=O)NCC3CC3)[C@H]2N1CCC (mixture of isomers)
  FGF22 binding = i
COc1ccc(CN(C)C[C@@H]2Oc3ccc(NC(=O)NC4CCCCC4)cc3C(=O)N([C@@H](C)CO)C[C@@H]2C)cc1
  FGF22 binding = i
Cc1ccc(S(=O)(=O)Nc2ccc3c(c2)CC(=O)N([C@H](C)CO)C[C@H](C)[C@H](CN(C)C(=O)Nc2ccc4c(c2)OCO4)O3)cc1
  FGF22 binding = i
C[C@@H]1CN([C@H](C)CO)C(=O)Cc2cc(NS(=O)(=O)c3ccc(F)cc3)ccc2O[C@H]1CN(C)CC1CC1
  FGF22 binding = i
CO[C@H]1CN(C)C(=O)c2cc(NC(=O)NC(C)C)ccc2OC[C@H](C)N(C(=O)C2CCC2)C[C@@H]1C
  FGF22 binding = i
CCC(=O)Nc1ccc2c(c1)OC[C@@H](C)N(CCC(F)(F)F)C[C@H](C)[C@@H](OC)CN(C)C2=O
  FGF22 binding = i
C[C@H]1CN([C@@H](C)CO)C(=O)c2cc(C#Cc3ccc(F)cc3)cnc2O[C@H]1CN(C)CC1CCOCC1
  FGF22 binding = i
COc1ccc(OC(=O)N(C)C[C@H]2OCc3cn(nn3)CCCC(=O)N([C@@H](C)CO)C[C@H]2C)cc1
  FGF22 binding = i
C[C@@H]1CN([C@@H](C)CO)C(=O)c2cc(C#CC3(O)CCCC3)cnc2O[C@@H]1CN(C)C
  FGF22 binding = i
C[C@H]1CN([C@@H](C)CO)S(=O)(=O)c2ccc(C#CC3(O)CCCC3)cc2O[C@@H]1CN(C)C(=O)Cc1ccccc1
  FGF22 binding = i
Cc1noc(C)c1NC(=O)N(C)C[C@H]1Oc2c(NC(=O)c3ccncc3)cccc2C(=O)N([C@@H](C)CO)C[C@H]1C
  FGF22 binding = i
CC(C)NC(=O)N(C)C[C@@H]1Oc2cc(C#Cc3ccc(F)cc3)ccc2S(=O)(=O)N([C@@H](C)CO)C[C@@H]1C
  FGF22 binding = i
CCNC(=O)[C@H]1[C@H](CO)[C@H]2Cn3c(ccc(-c4ccc(OC)cc4)c3=O)[C@H]2N1Cc1ccccc1
  FGF22 binding = i
Cc1noc(C)c1S(=O)(=O)Nc1ccc2c(c1)CC(=O)N([C@@H](C)CO)C[C@H](C)[C@H](CN(C)C(=O)Nc1ccc(C(F)(F)F)cc1)O2
  FGF22 binding = i
COC(=O)[C@@H]1[C@@H](CO)[C@@H]2Cn3c(ccc(-c4cccc(F)c4)c3=O)[C@@H]2N1S(C)(=O)=O
  FGF22 binding = i
CN1CCN(C(=O)[C@@H]2[C@@H](CO)[C@@H]3Cn4c(ccc(C5=CCCC5)c4=O)[C@H]2N3S(C)(=O)=O)CC1
  FGF22 binding = i
OC[C@@H]1Nc2ccc(-c3ccccc3)cc2[C@@H]2[C@H]1CCN2Cc1ccc(F)cc1
  FGF22 binding = i
CCCC(=O)N1C[C@@H]2[C@H](c3ccccc31)[C@H](CO)N2C(=O)Nc1ccccc1
  FGF22 binding = i
CN(C)C(=O)C[C@@H]1CC[C@@H](NC(=O)NC2CCCC2)[C@H](CO)O1
  FGF22 binding = i
Cc1ccc(S(=O)(=O)Nc2ccc3c(c2)C(=O)N([C@H](C)CO)C[C@H](C)[C@@H](CN(C)C)O3)cc1
  FGF22 binding = i
COC(=O)C(CC#Cc1ccc2c(c1)[C@]1(C(=O)N2)[C@H](c2ccccc2OCCO)N2[C@H](c3ccccc3)[C@H](c3ccccc3)OC(=O)[C@H]2[C@@H]1C(=O)NC[C@H](O)c1ccccc1)C(=O)OC
  FGF22 binding = i
O=C(C[C@@H]1CC[C@H](NC(=O)Nc2cc(F)ccc2F)[C@H](CO)O1)Nc1ccccc1
  FGF22 binding = i
CO[C@H]1CN(C)C(=O)c2ccc(NC(=O)Nc3ccc(Cl)cc3)cc2OC[C@H](C)N(C(=O)Nc2c(C)noc2C)C[C@@H]1C
  FGF22 binding = i

(further entries)
Molecule	FGF22 binding
CC=Cc1ccc2n(c1=O)C[C@@H]1[C@@H](CO)[C@H](C(=O)N3CCc4ccccc4C3)N[C@H]21 (mixture of isomers)	i
C[C@@H]1CN([C@@H](C)CO)C(=O)Cc2cc(NC(=O)c3ccncc3)ccc2O[C@H]1CN(C)S(=O)(=O)c1cn(C)cn1	i
Cc1noc(C)c1S(=O)(=O)Nc1cccc2c1O[C@@H](CN(C)C(=O)NC1CCCCC1)[C@@H](C)CN([C@H](C)CO)C2=O	i
N#C[C@@H]1[C@H](c2ccc(C3=CCCC3)cc2)[C@@H](CO)N1C(=O)Cc1ccncc1	i
CC(C)NC(=O)NCC[C@@H]1CC[C@H](NS(=O)(=O)c2ccc(Oc3ccccc3)cc2)[C@@H](CO)O1	i
C[C@@H]1CN([C@@H](C)CO)C(=O)Cc2cc(NC(=O)CCC(F)(F)F)ccc2O[C@@H]1CN(C)S(C)(=O)=O	i
C[C@@H]1CN([C@H](C)CO)C(=O)c2cc(C#CC3CCCCC3)cnc2O[C@H]1CN(C)C(=O)Cc1ccccn1	i
COC(=O)C[C@@H]1CC[C@@H]2[C@H](COC[C@H](O)CN2S(=O)(=O)c2cn(C)cn2)O1	i
CCNC(=O)[C@@H]1[C@@H](CO)[C@@H]2Cn3c(ccc(-c4cccc(F)c4)c3=O)[C@H]1N2C(=O)c1ccccn1	i
COc1ccc(S(=O)(=O)Nc2ccc3c(c2)CC(=O)N([C@H](C)CO)C[C@@H](C)[C@@H](CN(C)C)O3)cc1	i
Cc1ccc(S(=O)(=O)N2C[C@H](O)COC[C@@H]3O[C@H](CC(=O)N[C@@H]4CCN(Cc5ccccc5)C4)CC[C@H]32)cc1	i
CC(=O)N(C)C[C@H]1Oc2cc(C#Cc3ccc(F)cc3)ccc2S(=O)(=O)N([C@@H](C)CO)C[C@H]1C	i
C[C@H](CO)N1C[C@H](C)[C@H](CN(C)S(=O)(=O)c2cn(C)cn2)Oc2cc(C#Cc3ccc(F)cc3)ccc2S1(=O)=O	i
O=C(C[C@H]1C=C[C@H](NC(=O)Nc2ccccc2F)[C@H](CO)O1)NCc1ccc(Cl)cc1	i
COc1ccccc1-c1cn(CC[C@@H]2CC[C@@H](NC(=O)NC(C)C)[C@@H](CO)O2)nn1	i
C[C@@H]1CN([C@H](C)CO)C(=O)c2cc(NC(=O)NC3CCCCC3)ccc2O[C@@H]1CN(C)Cc1ccncc1	i
C[C@@H]1CN([C@@H](C)CO)C(=O)c2cccc(NC(=O)C3CCOCC3)c2O[C@H]1CN(C)CC1CCCCC1	i
O=C(NC1CCCC1)N1CCCCN2[C@H](C1)[C@H](c1ccc(-c3ccccc3)cc1)[C@@H]2CO	i
COc1ccc(S(=O)(=O)Nc2ccc3c(c2)CC(=O)N([C@@H](C)CO)C[C@H](C)[C@H](CN(C)C(=O)Nc2ccccc2)O3)cc1	i
C[C@H](CO)N1C[C@H](C)[C@@H](CN(C)S(=O)(=O)c2cccs2)Oc2ccc(NC(=O)C3CCCCC3)cc2CC1=O	i
Cn1cnc(S(=O)(=O)N2CCCCN3[C@H](CO)[C@@H](c4ccc(-c5ccccc5)cc4)[C@H]3C2)c1	i
CC(C)C#Cc1ccc2c(c1)O[C@H](CN(C)CC1CCOCC1)[C@H](C)CN([C@H](C)CO)S2(=O)=O	i
CC(C)NC(=O)N(C)C[C@@H]1OCCCC[C@@H](C)Oc2ccc(NC(=O)C3CCCCC3)cc2C(=O)N([C@H](C)CO)C[C@@H]1C	i
COc1ccccc1CNC(=O)C[C@@H]1C[C@@H]2c3cc(NC(=O)C4CCC4)ccc3O[C@@H]2[C@H](CO)O1	i
C[C@H](CO)N1C[C@H](C)[C@H](CN(C)C)Oc2ncc(C#Cc3ccccc3)cc2C1=O	i
C/C=C/c1ccc2c(c1)O[C@H](CN(C)C(C)=O)[C@@H](C)CN([C@@H](C)CO)S2(=O)=O	i
C[C@@H]1CN([C@@H](C)CO)C(=O)c2cc(NC(=O)Nc3cccc4ccccc34)ccc2O[C@@H](C)CCCCO[C@H]1CN(C)Cc1ccc2c(c1)OCO2	i
COc1cccc(S(=O)(=O)N2CC[C@@H]3[C@H](CO)Nc4ccc(-c5ccc(C#N)cc5)cc4[C@@H]32)c1	i
COc1ccc(CN(C)C[C@@H]2OCCCC[C@H](C)Oc3ccc(NS(=O)(=O)c4ccc(Cl)cc4)cc3C(=O)N([C@H](C)CO)C[C@@H]2C)cc1	i
C[C@H](CO)N1C[C@H](C)[C@H](CN(C)Cc2ccccn2)Oc2ncc(-c3ccc(C#N)cc3)cc2C1=O	i
COc1ccc(S(=O)(=O)Nc2ccc3c(c2)C(=O)N([C@H](C)CO)C[C@@H](C)[C@H](CN(C)C(=O)Nc2c(C)noc2C)O3)cc1	i

Screening results deposited in PubChem BioAssay by Broad Institute.

Only part of the results is shown; rates above refer to the full screens.
